Source: PubChem BioAssay (National Center for Advancing Translational Sciences (NCATS))
Vaccinia Venus = qHTS for Stage-Specific Inhibitors of Vaccinia Orthopoxvirus: Venus Reporter Primary qHTS | Potency, µM (highest dose often 36.5 µM), for the others: at the top dose activity change, negative = inhibition, most hits filed as inhibitors | AID 720580, 2013 | 0.46% of 330,000 active | Vaccinia virus Venus reporter expression, fluorescence; active means well fitted inhibition curve with a large enough effect; inconclusive means small, poorly fitted or top-dose-only effect; inactive means no such curve, though single readings can be large or run the other way; tested in A549 cells; further: nearly all actives have a fitted effect of over 30% in size; inactives centre near -10
Vaccinia mCherry = qHTS for Stage-Specific Inhibitors of Vaccinia Orthopoxvirus: mCherry Reporter Primary qHTS | Vaccinia virus mCherry reporter infection, fluorescence; about a quarter of the inactives have no number | Potency, µM (titrated, usually from 36.5 µM), without a hit: top-dose activity change, negative = inhibition, actives largely listed as inhibitors | 0.63% of 310,000 active | AID 720579, 2013; active = well fitted inhibition curve with a large enough effect; inconclusive = small, poorly fitted or top-dose-only effect; inactive = no such curve, though single readings can be large or run the other way; tested in A549 cells; further: nearly all actives have a fitted effect of over 35% in size; inactives centre near -10
Active calls of the source: *; [ ] = dose if it differs, or a comment. On the % scale 0 is the no-effect control and ±100 the full control effect; potency means the concentration at half of the fitted maximal effect.

For CCOC(=O)c1ccc(N=C2SC(C(=O)Nc3ccc(C(=O)O)cc3)CC(=O)N2Cc2cccs2)cc1 (configuration not stated) the results were Vaccinia Venus -11% and Vaccinia mCherry inactive.
`COc1ccc(OC(=O)N(C)C[C@H]2OCc3cnnn3CCCC(=O)N([C@H](C)CO)C[C@H]2C)cc1` gave Vaccinia Venus 1% and Vaccinia mCherry -22%.
`Cc1cc(C)c2c(n1)sc1c(=O)n(-c3cc(Cl)ccc3C)nnc12` gave Vaccinia Venus -27% and Vaccinia mCherry inconclusive.
Cc1cccc(COC[C@H](Cc2ccccc2)N2CCN(C(=O)c3cccc(C)c3)CCC2=O)c1 was read as Vaccinia Venus -12% and Vaccinia mCherry 14%.
`Cc1cccc(CS(=O)(=O)c2cn(CC(=O)N3CCOCC3)c3ccccc23)c1` gave Vaccinia Venus -6% and Vaccinia mCherry -7%.
For COc1ccc(C2C(C(=O)c3ccccc3)N3c4ccccc4C=CC3C2[N+](=O)[O-])cc1 (configuration not stated) the results were Vaccinia Venus 74%[activator] and Vaccinia mCherry -1%.
`Cc1c(NC(=O)c2cccc(NC(=O)COc3ccc(C#N)cc3)c2)c(=O)n(-c2ccccc2)n1C` gave Vaccinia Venus -11% and Vaccinia mCherry -18%.
CC(C)CCNC(=O)CCCOc1ccccc1 was read as Vaccinia Venus -1%.
For COCCCNC(=O)Cn1nnc(-c2ccc(NC(=O)c3ccccc3F)cc2)n1 the results were Vaccinia Venus -26%.
`Cc1nc2nc(C)n(-c3ccccc3)c2s1` gave Vaccinia Venus -12%.
Screening CC1CCC(CC(=O)O)(C(=O)O)CC1 (configuration not stated) returned Vaccinia Venus 6% and Vaccinia mCherry inactive.
`Cc1ccc(/C=N\NC(=O)Cc2cccn2C)o1` gave Vaccinia Venus 2% and Vaccinia mCherry -2%.
Screening O=C(O)CN1C(=O)/C(=C\c2cn(CC(=O)N3CCOCC3)c3ccccc23)SC1=S returned Vaccinia Venus 9% and Vaccinia mCherry -11%.
`COc1cccc(OC)c1C(=O)Nc1ccc2c3c(cccc13)CC2` gave Vaccinia Venus -11% and Vaccinia mCherry inactive.
`COc1ccc(NC(=O)Nc2nc(C(N)C3CCCCC3)cs2)cc1` (configuration not stated) gave Vaccinia Venus inconclusive and Vaccinia mCherry -17%.
Screening Cc1ccsc1C(=O)C1CCCN(Cc2ccccc2O)C1 (configuration not stated) returned Vaccinia Venus -6% and Vaccinia mCherry -11%.
COc1ccc(C)cc1NC(=O)c1ccc(OC(F)F)cc1 was read as Vaccinia Venus -4% and Vaccinia mCherry inactive.
Screening COc1cc(C)nc(NCc2ccccc2)n1 returned Vaccinia Venus 4% and Vaccinia mCherry -6%.
Screening CN(C)CCN1C(=O)C2C(C(=O)Nc3cc(Cl)cc(Cl)c3)C3C=CC2(O3)C1C(=O)NC1CCCCC1 (configuration not stated) returned Vaccinia Venus -23% and Vaccinia mCherry inconclusive.
Screening O=C(CNC(=O)c1cccc(Br)c1)N/N=C/c1ccc2c(c1)OCO2 returned Vaccinia Venus 6% and Vaccinia mCherry -8%.

Ordered by formula weight (highest first): part of the list above.
Screening O=C(O)CN1C(=O)/C(=C\c2cn(CC(=O)N3CCOCC3)c3ccccc23)SC1=S returned Vaccinia Venus 9% and Vaccinia mCherry -11%.
For COc1ccc(C2C(C(=O)c3ccccc3)N3c4ccccc4C=CC3C2[N+](=O)[O-])cc1 (configuration not stated) the results were Vaccinia Venus 74%[activator] and Vaccinia mCherry -1%.
Screening O=C(CNC(=O)c1cccc(Br)c1)N/N=C/c1ccc2c(c1)OCO2 returned Vaccinia Venus 6% and Vaccinia mCherry -8%.
`Cc1cc(C)c2c(n1)sc1c(=O)n(-c3cc(Cl)ccc3C)nnc12` gave Vaccinia Venus -27% and Vaccinia mCherry inconclusive.
Screening COc1cc(C)nc(NCc2ccccc2)n1 returned Vaccinia Venus 4% and Vaccinia mCherry -6%.

Later entries.
`CC(Sc1nnc2c(n1)C1CCC2(C)C1(C)C)C(=O)Nc1ccccc1` (configuration not stated) gave Vaccinia Venus -3% and Vaccinia mCherry -16%.
Screening Nc1nonc1-n1nnc(C(=O)N/N=C/c2ccc(Cl)cc2Cl)c1CN1CCCCC1 returned Vaccinia Venus -7% and Vaccinia mCherry inactive.
Screening CC(C)(C)n1nc2c(c1NC(=O)c1ccco1)CS(=O)C2 (configuration not stated) returned Vaccinia Venus -9% and Vaccinia mCherry -15%.
For COc1cccc(NS(=O)(=O)CC23CCC(CC2=O)C3(C)C)c1 (configuration not stated) the results were Vaccinia Venus -11% and Vaccinia mCherry inactive.
Screening COc1ccc(C(=O)CSc2nnc(-c3ccccc3)o2)cc1 returned Vaccinia Venus -9%.
Screening CC(C)(c1ccccc1)c1ccc(OCc2ccc(C(=O)O)o2)cc1 returned Vaccinia Venus -13% and Vaccinia mCherry -4%.
Screening O=C(NCc1ccccc1)c1nc[nH]c1C(=O)NCc1ccccc1 returned Vaccinia Venus -21% and Vaccinia mCherry inactive.
For Cc1ccc(S(=O)(=O)Nc2c(C)n(C)n(-c3ccccc3)c2=O)cc1C(=O)NCc1ccco1 the results were Vaccinia Venus -19% and Vaccinia mCherry -7%.
`NC(=O)c1nsc(C(=O)N(Cc2ccco2)C(C(=O)NCC2CCCO2)c2ccc(F)cc2)c1N` (configuration not stated) gave Vaccinia Venus 9% and Vaccinia mCherry -20%.
For CCN(CC)c1ccc(C=N/C(C#N)=C(\N)C#N)cc1 the results were Vaccinia Venus 1% and Vaccinia mCherry -3%.
Screening Nc1ccccc1C(=O)Nc1cccc(C(=O)O)c1 returned Vaccinia Venus 0% and Vaccinia mCherry -5%.
For O=C1CCC(/C=C/c2ccccc2)=NN1Cc1ccc(F)cc1 the results were Vaccinia Venus 2% and Vaccinia mCherry inactive.
CCOC(=O)C1=C(C)Nc2sc(C(=O)c3ccc(F)cc3)c(N)c2C1c1ccc(C(=O)OC)cc1 (configuration not stated) was read as Vaccinia Venus -8% and Vaccinia mCherry inactive.
For COc1cc(C(=S)N2CCOCC2)cc(OC)c1OC(=O)Cc1ccccc1 the results were Vaccinia Venus 7% and Vaccinia mCherry 0%.
For COc1ccccc1N1CCN(C(c2ccc(C)cc2)c2nnnn2C(C)C)CC1 (configuration not stated) the results were Vaccinia Venus -13%.
For Cc1cc(C(=O)N/N=C/c2ccccn2)n[nH]1 the results were Vaccinia Venus -3% and Vaccinia mCherry inactive.
Screening CC1CCN(CCCN2C(=O)C3C(C(=O)Nc4ccc(Cl)cc4)C4C=CC3(O4)C2C(=O)NC2CCCCC2)CC1 (configuration not stated) returned Vaccinia Venus -1% and Vaccinia mCherry inactive.
For CCCC(=O)c1cc(-c2nc3ccccc3n2C)n(C)c1 the results were Vaccinia Venus -21% and Vaccinia mCherry inactive.
`COc1ccccc1C(=O)Nc1nnc(S(=O)(=O)N2CCCCC2)s1` gave Vaccinia Venus -11% and Vaccinia mCherry -12%.
For COc1ccc(NC(=O)CN(C)S(=O)(=O)c2cnc[nH]2)cc1 the results were Vaccinia Venus 0%[7.34 µM] and Vaccinia mCherry -5%[7.34 µM].
Nc1ncnc(N2CCOCC2)c1N was read as Vaccinia Venus -5% and Vaccinia mCherry inconclusive.
For Cc1cc(C)n(-c2nc3ccccc3c(=O)n2OC2CCCCC2)n1 the results were Vaccinia Venus -16%.
`CC(C)=NOC(=O)c1ccc(-c2ccccc2)cc1` gave Vaccinia Venus -10% and Vaccinia mCherry -17%.
For Cc1ccc(C(=O)CSc2nc(-c3ccccc3)nc3c2CCCC3)c(C)c1 the results were Vaccinia Venus 3% and Vaccinia mCherry 11%.
`Cc1nnsc1C(=O)N1CCC(C(=O)c2ccccc2)CC1` gave Vaccinia Venus -6% and Vaccinia mCherry inactive.
`CCNC(=O)C1CCCN(C(=O)c2cccc(OC(F)(F)F)c2)CC1` (configuration not stated) gave Vaccinia Venus -13% and Vaccinia mCherry inactive.
COc1ccccc1-c1csc(C(C)(O)c2ccccc2)n1 (configuration not stated) was read as Vaccinia Venus 4% and Vaccinia mCherry inactive.
CCCN(Cc1cccs1)C(=O)Nc1ccc(OCC)cc1 was read as Vaccinia Venus -7% and Vaccinia mCherry 3%.
For O=[N+]([O-])c1ccc(N2CCN(S(=O)(=O)c3ccccc3)CC2)cc1NCC1CCCO1 (configuration not stated) the results were Vaccinia Venus -11% and Vaccinia mCherry inactive.
O=C(C1COc2ccccc2O1)N(Cc1cccnc1)c1nc2c(F)cc(F)cc2s1 (configuration not stated) was read as Vaccinia Venus -10% and Vaccinia mCherry -22%.
`OCC[C@@H]1C[C@H](O)[C@@H](O)[C@@]2(CCCc3ccccc3O2)O1` gave Vaccinia Venus -8% and Vaccinia mCherry inactive.
Screening CC(Oc1ccccc1)C(=O)NC1=NCCS1 (configuration not stated) returned Vaccinia Venus -30% and Vaccinia mCherry -4%.
Screening NS(=O)(=O)c1ccc(NC(=S)NC(=O)c2ccco2)cc1 returned Vaccinia Venus -12% and Vaccinia mCherry -11%.
Screening CC(C)(C)OC(=O)N1CCC(c2c(C(=O)N3CCN(C(=O)c4ccco4)CC3)cnn2-c2ccc(F)cc2F)CC1 returned Vaccinia Venus -13% and Vaccinia mCherry -13%.
`O=C(CSc1ncccn1)N/N=C/c1ccc2c(c1)OCO2` gave Vaccinia Venus -12% and Vaccinia mCherry -13%.
`O=C(CN1CCN(Cc2ccccc2)CC1)N/N=C/C=C/c1ccccc1[N+](=O)[O-]` gave Vaccinia Venus -1% and Vaccinia mCherry inactive.
Screening Cc1ccc(CN2COc3ccc4c(C)cc(=O)oc4c3C2)cc1 returned Vaccinia Venus -1% and Vaccinia mCherry -13%.
O=C(O)c1ccc(CNCc2cccc(Cl)c2Cl)cc1 was read as Vaccinia Venus -7%.
`Nn1c(SCC(=O)NC(=O)NC2CCCC2)nnc1-c1ccccc1F` gave Vaccinia Venus -11% and Vaccinia mCherry inactive.
For CCOc1ccc(-n2c(SCC(=O)NC3CCS(=O)(=O)C3)nnc2-c2cccnc2)cc1 (configuration not stated) the results were Vaccinia Venus 11% and Vaccinia mCherry 2%.
For Cc1ccc(C(=O)N2CCC3CC2c2cc(-c4ccc5c(c4)OCO5)ccc23)cc1 (configuration not stated) the results were Vaccinia Venus -23% and Vaccinia mCherry inconclusive.
`C=C1C[C@@]23C[C@@]1(O)CCC2[C@@]12C=CC(O)[C@](C)(C(=O)O1)C2C3C(=O)O` (some centres not stated) gave Vaccinia Venus 0% and Vaccinia mCherry -1%.
`O=c1cc(O)c2c(=O)n(-c3ccccc3)c3c(c2o1)CCCCC3` gave Vaccinia Venus 3% and Vaccinia mCherry -9%.
Screening CCCN(CCC)CC(O)Cn1cc(/C=C/C(=O)c2cccs2)c2ccccc21 (configuration not stated) returned Vaccinia Venus inconclusive and Vaccinia mCherry -22%.
Screening O=C(O)c1cccc(N/N=C/c2cn(-c3ccccc3)nc2-c2cccs2)c1 returned Vaccinia Venus 4% and Vaccinia mCherry -5%.
COc1ccc(C)cc1NC(=O)CN1CCN(S(=O)(=O)c2ccc(C(C)C)cc2)CC1 was read as Vaccinia Venus inconclusive.
CCSc1nnc2c(n1)OC(c1sccc1C)N(C(C)=O)c1ccccc1-2 (configuration not stated) was read as Vaccinia Venus -16% and Vaccinia mCherry -21%.
`CCOc1ccc(C(=O)NCC(=O)NCCOc2ccc(C)cc2)cc1` gave Vaccinia Venus 6% and Vaccinia mCherry inconclusive.
For Fc1ccccc1C1=NC(c2ccc(C(F)(F)F)cc2)=Nc2ccccc2N1 the results were Vaccinia Venus 4% and Vaccinia mCherry -10%.
Screening CCOc1ccc(NC(=O)CSc2nnc(CCNC(=O)c3ccc(OC)cc3)n2CC)cc1 returned Vaccinia Venus -3% and Vaccinia mCherry -6%.
Screening NNc1nc2ccc(Cl)cc2s1 returned Vaccinia Venus -22% and Vaccinia mCherry -3%.
Screening CC(C)NCCCCOc1ccc(Br)cc1Cl returned Vaccinia Venus -15% and Vaccinia mCherry -6%.
For Cc1ccc2nc(C)cc(C(=O)OCC(=O)Nc3cccnc3Cl)c2c1 the results were Vaccinia Venus 2% and Vaccinia mCherry 4%.
Screening Cc1nn(-c2ccc(N3CCOCC3)nn2)c(C)c1CCC(=O)NCc1ccc(Cl)cc1 returned Vaccinia Venus -7% and Vaccinia mCherry -8%.
Screening COc1cccc(-c2cc(NC(C)=O)c3ncc(-c4cccc(C(C)=O)c4)n3c2)c1 returned Vaccinia Venus 0% and Vaccinia mCherry 4%.
COc1ccc(NS(=O)(=O)c2ccc(N3CCCCS3(=O)=O)cc2)cc1Cl was read as Vaccinia Venus -27% and Vaccinia mCherry -25%.
For Cc1ccc(C2NC(=O)c3c(sc4c3CCN(C)C4)N2)s1 (configuration not stated) the results were Vaccinia Venus -1% and Vaccinia mCherry inactive.

Random excerpt: 5 compounds from above
Screening CN(C)CCN1C(=O)C2C(C(=O)Nc3cc(Cl)cc(Cl)c3)C3C=CC2(O3)C1C(=O)NC1CCCCC1 (configuration not stated) returned Vaccinia Venus -23% and Vaccinia mCherry inconclusive.
CCCN(Cc1cccs1)C(=O)Nc1ccc(OCC)cc1 was read as Vaccinia Venus -7% and Vaccinia mCherry 3%.
Screening O=C(NCc1ccccc1)c1nc[nH]c1C(=O)NCc1ccccc1 returned Vaccinia Venus -21% and Vaccinia mCherry inactive.
For Cc1ccc(C(=O)N2CCC3CC2c2cc(-c4ccc5c(c4)OCO5)ccc23)cc1 (configuration not stated) the results were Vaccinia Venus -23% and Vaccinia mCherry inconclusive.
`COc1ccc(NC(=O)Nc2nc(C(N)C3CCCCC3)cs2)cc1` (configuration not stated) gave Vaccinia Venus inconclusive and Vaccinia mCherry -17%.

Compounds were not picked by outcome; any-hit rate near 0.88%.
